rRNA inh HTS: selective bacterial rRNA inhibition in E. coli; 350,000 compounds, 1.6% hits; E. coli WT GFP vs humanized-ribosome RFP mutants, fluorescence, 24 h; active compounds read low; DMSO median 0, no signal -100; GFP signal change (wild-type ribosome), % (test concentration not listed);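 active means significant combined selectivity score with lowered wild-type GFP, culture density cut under 30%, mutant RFP and density less affected; inactive means any of these conditions unmet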; further: one replicate is shown; some compounds called inactive have numbers as strong as hits
Calb FLC: C. albicans growth modulation with fluconazole; C. albicans CaCi-2 (fluconazole-resistant clinical isolate) + fluconazole, Alamar Blue growth, 48 h; growth inhibition, % (no concentration beside the values); 300,000 compounds, 0.57% hits;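 active means most replicates above 75%; inconclusive means exactly half above 75%; inactive means most below 75%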;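 further: all wells also contain fluconazole at 8 µg/ml as a sub-toxic cotreatment; 0% = median of DMSO wells and 100% = median of geldanamycin control wells; wells of about 8 µL received 7.5 nL stock; the first replicate is given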
AF4-AF9 inh: MLL-AF4/AF9 protein interaction inhibition; P42568; AlphaScreen, biotin-AF4 peptide binding to FLAG-AF9; inhibition, % at 10 µM; 350,000 compounds, 0.47% hits; AID 651704;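 active means every replicate reaching a set inhibition limit, whatever the replicate mean, cut at about 25% in these data; inconclusive means mean inhibition reaches that limit but some replicates miss it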;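 further: 0% = plate neutral control median and 100% = total signal loss; the record names both 10 and 1 µM as test concentration; the first replicate is given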
Target sequence (P42568 whole entry, looked up): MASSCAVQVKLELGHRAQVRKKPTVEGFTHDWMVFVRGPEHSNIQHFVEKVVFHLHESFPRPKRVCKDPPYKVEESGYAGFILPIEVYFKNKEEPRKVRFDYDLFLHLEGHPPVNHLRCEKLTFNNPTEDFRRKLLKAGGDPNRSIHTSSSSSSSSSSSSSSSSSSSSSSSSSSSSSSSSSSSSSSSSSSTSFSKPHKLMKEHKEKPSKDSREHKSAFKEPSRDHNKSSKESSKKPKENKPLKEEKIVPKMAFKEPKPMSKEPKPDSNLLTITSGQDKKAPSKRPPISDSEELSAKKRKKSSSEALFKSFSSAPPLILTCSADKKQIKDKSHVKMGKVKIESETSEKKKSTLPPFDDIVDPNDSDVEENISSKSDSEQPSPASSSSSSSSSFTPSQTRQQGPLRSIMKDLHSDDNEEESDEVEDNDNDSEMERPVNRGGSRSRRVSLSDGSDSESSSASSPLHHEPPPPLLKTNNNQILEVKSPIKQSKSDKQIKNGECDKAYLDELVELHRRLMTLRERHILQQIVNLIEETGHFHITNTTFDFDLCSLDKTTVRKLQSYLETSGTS
FGF22 binding: shifts melting point of recombinant human FGF22. recombinant FGF22 thermal shift, SYPRO orange fluorescence; percent of sucrose octasulfate shift, DMSO zero. Q9HCT0. calls only at 9.99 µM. 340,000 compounds, 1.5% hits;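 active means melting point raised past a set limit in the mean and every replicate; inconclusive means no clear call; three in four hits are not shown here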
Target sequence (Q9HCT0 whole entry, looked up): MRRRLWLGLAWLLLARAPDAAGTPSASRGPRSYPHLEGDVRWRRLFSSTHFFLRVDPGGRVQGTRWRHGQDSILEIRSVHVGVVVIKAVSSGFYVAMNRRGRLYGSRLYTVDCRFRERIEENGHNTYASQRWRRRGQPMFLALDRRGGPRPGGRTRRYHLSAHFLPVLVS
RanGTP-Impb inh: inhibitors of RanGTP-importin-beta interaction, primary screen, biochemical, FRET, CFP-Ran, YFP-importin-beta, homogeneous. 300,000 compounds, 1.1% hits. cell-free CFP-Ran/YFP-importin-beta FRET ratio. inhibition, % (concentration not given with the values);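 active means most replicates above 15%; inconclusive means exactly half above 15%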;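 further: 0% = DMSO wells and 100% = Ran loaded with GDP instead of GTP; wells of about 40 µL received 100 nL stock; the first replicate is given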
ALR H2O2 inh: blocks human ALR sulfhydryl oxidase activity; inhibition, % (concentration not given with the values); 290,000 compounds, 3.8% hits; purified ALR, DTT oxidation, H2O2 HRP-luminol luminescence; P55789;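 active means mean and each replicate at 75% or more; inconclusive means only one of the two met; inactive means neither met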;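 further: stock transfer was 7.5 nL into about 7.5 µL; 0% = neutral wells and 100% = wells with inactivated enzyme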
Target sequence (P55789 whole entry, looked up): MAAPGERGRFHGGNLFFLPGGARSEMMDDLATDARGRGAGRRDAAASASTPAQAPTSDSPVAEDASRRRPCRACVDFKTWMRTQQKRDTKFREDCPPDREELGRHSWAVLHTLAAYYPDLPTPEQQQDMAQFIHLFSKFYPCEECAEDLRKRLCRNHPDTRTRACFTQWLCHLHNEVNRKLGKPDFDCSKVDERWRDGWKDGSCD
Beta cell apopt: beta cell apoptosis inhibition | INS-1E cytokine-induced death, ATP luminescence, 48 h; percent of positive-control rescue, neutral wells zero | protection from apoptosis, % (no concentration beside the values) | 300,000 compounds, 0.8% hits | AID 435005;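 active means all replicates at 75% or more, or half of them and the mean; inconclusive means half reach 75% but not the mean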;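 further: 0% = cytokine-treated negative control wells and 100% = positive control rescue; higher means more ATP so stronger rescue from cytokine killing; wells of about 40 µL received 100 nL stock; the first replicate is given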
T cruzi inh: T. cruzi replication inhibition. T. cruzi beta-gal in NIH3T3, luminescence, 90 h. inhibition, % (concentration not given with the values). 300,000 compounds, 1.4% hits;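 active means mean inhibition across valid replicates above about 55%, limit read from the data; inconclusive means mean below that limit but half or more replicates reach it; inactive means mean below it, under half of replicates reach it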;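 further: signal also drops with host cell toxicity which is not excluded here; 0% = plate median of DMSO wells and 100% = zero luminescence signal; higher percent means less beta-gal luminescence so fewer parasites; stock transfer was 50 nL into about 50 µL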
rRNA inh HTS OD600: also measured in rRNA inh HTS; calls as there; OD600 change, %; measured here: OD600 growth;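 optical density of the mix in the first replicate; 0 = DMSO median and -100 = no signal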
rRNA inh HTS RFP: second read-out of rRNA inh HTS, no call of its own (marks repeat the call); RFP signal change, %; measured here: RFP humanized mutant strains;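 first replicate; 0 = DMSO median and -100 = no signal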
Numbers without * were called inactive; i = inactive; ? = inconclusive; · = no result given. These rows are one share of the data, so the mix of outcomes need not match the whole.

SMILES	rRNA inh HTS	rRNA inh HTS OD600	rRNA inh HTS RFP	Calb FLC	AF4-AF9 inh	FGF22 binding	RanGTP-Impb inh	ALR H2O2 inh	Beta cell apopt	T cruzi inh
Cn1c(=O)cc(OCC(=O)NCc2cccnc2)c2ccccc21	·	·	·	-3	·	·	2.8	-6	0	0
O=c1c2ccc(Cl)cc2nc(-c2cccc(C(F)(F)F)c2)n1O	·	·	·	79*	·	·	2.7	-8	51	-8
CC(=O)C[C@H]1c2cc(C(F)(F)F)ccc2S(=O)(=O)N1C1CCCCC1	-1	-4	-2.8	-3	·	i	-2.2	4	-2	3
CCOC(=O)[C@@H]1[C@H]2COc3cc(OC)ccc3[C@H]2N2C(=O)N(c3ccccc3)C(=O)[C@]12C	-4	-9	-7.8	·	4.1	i	·	-2	-1	·
CCS(=O)(=O)N1CCC(NC(=O)C(Cc2cccc(OC)c2OC)NC(C)=O)CC1 (stereo not drawn)	-3	1	-2.2	-5	-4.5	i	-3.0	·	·	-1
Cc1ccc(S(=O)(=O)N(C)C)cc1NC(=O)COC(=O)CNC(=O)c1cccs1	-7	-11	8.7	10	5.6	i	0.9	-3	-11	-6
CCOC(=O)c1ccc(NC(=O)CSc2nc(N)c(NC(=O)c3ccc(Br)o3)c(=O)[nH]2)cc1	8	12	-1.6	2	-0.2	i	?	-45	-1	-4
Cc1cc(C)c2sc(NNC(=O)C3COc4ccccc4O3)nc2c1 (stereo not drawn)	-45	-49	-9.4	·	-4.0	i	·	·	4	·
CC(C)CNC(=S)N1CCN(c2nc(-c3ccc(Cl)cc3)cs2)CC1	-4	-4	-3.0	-5	-4.2	·	-1.8	-5	19	16
COc1ccc(OC)c(NC(=O)c2ccc(NC(C)=O)cc2)c1	·	·	·	-3	·	·	-1.2	-31	-5	5
COc1cccc(NC(=O)CSc2nnc(Cn3c(=O)sc4ccccc43)n2C)c1	2	5	-0.1	·	-3.1	i	·	-5	-3	·
CCOC(=O)C(=O)Nc1ccccc1C(=O)NCc1ccccc1	15	6	-1.4	-2	-1.6	i	0.8	1	-4	4
CN(C(=O)CSc1nc(N)nn1-c1ccccc1)c1ccccc1	8	5	0.9	-3	0.0	i	4.0	-5	-3	-9
NC(=O)c1ccc(NC(=O)COC(=O)CCCc2c[nH]c3ccccc23)cc1	-18	-17	0.1	0	-1.6	i	-0.4	-1	1	-24
COc1cc(/C=N/NC(=O)c2cccc(NC(=O)c3ccccc3Cl)c2)ccc1O	-8	-4	-2.8	8	0.1	i	-3.6	88*	-4	-23
O=C(CCC(=O)OCC(=O)c1ccc(F)cc1)NC1CCCCC1	·	·	·	0	·	·	-2.8	-4	-16	-7
O=C(CCSCCc1ccccn1)Nc1ccc(Br)cn1	-20	-17	-2.8	5	0.9	i	-9.5	2	0	-21
O=S(=O)(c1ccccc1)c1nc(Nc2cccc(O)c2)sc1Cl	·	·	·	22	·	·	-4.3	-10	·	12
N#Cc1c(N(CCO)CCO)nc(N)c2c(N)nc3c(c12)CC(=O)N3Cc1cccs1	·	·	·	-12	·	·	?	-33	-5	-12
CCCCC(CC(O)COCCC)c1n[nH]c(=S)n1-c1ccccc1 (stereo not drawn)	3	8	3.0	8	-6.4	i	1.4	20	0	20
COC(=O)c1ccc(COc2nc(C)cc(C)c2C#N)o1	·	·	·	-14	·	·	-0.7	3	-2	-9
COc1cc(C(=O)N/N=C/c2sc(=O)n(-c3ccccc3)c2Cl)cc(OC)c1OC	·	·	·	7	·	·	13	2	0	-6
COc1ccccc1/C=N/N(C(C)=O)c1nc(-c2ccc(F)cc2)cs1	·	·	·	-31	·	·	2.3	-5	-1	53
CC(NC(=O)c1ccco1)C(=O)N1CC=C(c2ccccc2)CC1 (stereo not drawn)	-1	-6	-2.3	·	-4.2	i	·	-11	-1	·
Cc1nc(C)c(C(=O)N(c2ccc(C)c(C)c2)C(C(=O)NCc2ccco2)c2ccccc2)s1 (stereo not drawn)	·	·	·	19	·	·	-1.1	-22	·	17

Not a retest: entries from further up.
SMILES	rRNA inh HTS	rRNA inh HTS OD600	rRNA inh HTS RFP	Calb FLC	AF4-AF9 inh	FGF22 binding	RanGTP-Impb inh	ALR H2O2 inh	Beta cell apopt	T cruzi inh
Cn1c(=O)cc(OCC(=O)NCc2cccnc2)c2ccccc21	·	·	·	-3	·	·	2.8	-6	0	0
O=c1c2ccc(Cl)cc2nc(-c2cccc(C(F)(F)F)c2)n1O	·	·	·	79*	·	·	2.7	-8	51	-8

The list continues.
SMILES	rRNA inh HTS	rRNA inh HTS OD600	rRNA inh HTS RFP	Calb FLC	AF4-AF9 inh	FGF22 binding	RanGTP-Impb inh	ALR H2O2 inh	Beta cell apopt	T cruzi inh
O=C1CCCN1S(=O)(=O)c1ccc(F)cc1	0	3	-3.7	6	2.2	i	8.3	-2	0	-9
Cc1ccccc1CNC(=O)CCc1ccccc1	-4	-3	-0.8	11	-1.6	i	9.9	-21	-2	-9
COc1ccccc1CCC(=O)Nc1ncc(C)s1	8	3	-2.8	6	-1.8	i	-1.9	2	0	3
COc1ccc(C(=O)c2ccccc2)cc1	10	1	-0.4	14	-1.0	i	-0.5	-4	-3	8
O=C(CSc1nnc(-c2cccnc2)o1)OC1CCCCC1	·	·	·	1	·	·	-1.5	42	-2	-1
S=C(NCc1ccc2c(c1)OCO2)NC1CCN(Cc2ccccc2)CC1	-5	1	0.4	2	0.0	i	1.4	-11	-4	12
O=C(Nc1cccnc1)c1cc(F)c(F)cc1Cl	2	-4	-1.4	4	-0.7	i	3.1	-1	-5	-4
COc1cc(CC(=O)OCC(=O)NC2CCCCCC2)cc(OC)c1OC	·	·	·	·	0.0	i	·	-3	5	·
CC1CCN(c2ccc(C(=O)OCC(=O)NCCN3C(=O)CSC3=O)cc2[N+](=O)[O-])CC1	-24	-13	-1.8	18	8.8	i	2.8	-2	-1	-3
Cn1ccsc1=NC(=O)c1ccc(=O)[nH]c1	5	8	-3.4	-1	-5.3	i	-2.4	10	1	0
CS(=O)(=O)Nc1ccc(C2=NN(S(=O)(=O)c3ccccc3)C(c3cccs3)C2)cc1 (stereo not drawn)	·	·	·	?	·	·	1.6	-6	6	42
COc1cccc(C2=CC(=O)CCC2)c1	·	·	·	-10	·	·	-4.1	·	-6	-15
CCOC(=O)N1CCC(NC(=O)CS(=O)Cc2nc(-c3ccccc3C)oc2C)CC1 (stereo not drawn)	6	-1	3.0	-4	-3.3	i	164*	99*	-2	42
O=C(Nc1scc(-c2ccccc2)c1C(=O)O)c1ccco1	·	·	·	-1	·	·	2.6	8	-2	-11
O=C(Nc1ccccc1N1CCOCC1)C1CCCCN1S(=O)(=O)c1ccccc1 (stereo not drawn)	-31*	-4.4*	-1.8*	3	0.4	i	3.9	1	-5	-2
CCN(CC(=O)Nc1c(F)cccc1F)C(=O)c1n[nH]c2ccccc12	6	5	-4.0	-5	-1.6	i	2.9	3	-5	-22
Cc1ccc(/C=N/NC(=O)c2ccc(-c3ccccc3)cc2)o1	-6	-6	1.4	-1	-8.9	i	-0.7	-23	5	1
c1ccc(CSc2nnc(-c3sccc3-n3cccc3)o2)cc1	·	·	·	-7	·	·	-1.3	9	1	11
O=c1[nH]c(-c2ccccc2)c(-c2ccccc2)[nH]1	·	·	·	-16	·	·	3.9	99*	-5	-4
Cc1nn(C)cc1CN1CCCC(C(=O)c2ccc(-c3ccccc3)cc2)C1 (stereo not drawn)	-8	-13	-1.0	-21	5.9	i	0.5	-21	10	62*
Cc1ccc(C(=O)CCC(=O)O)cc1	·	·	·	-4	·	·	-2.4	1	-1	-1
COc1ccc(C)cc1NC(=O)NNC(=O)c1cc2ccccc2cc1O	-11	-6	-4.9	93*	-0.2	i	-6.1	6	0	-14
N#Cc1nc(COc2ccccc2)oc1N1CCN(c2cccc(Cl)c2)CC1	·	·	·	-12	·	·	1.0	-3	-2	24
CCCc1nc2ccccc2c(=O)n1CC(=O)c1ccccc1	11	-2	1.9	-8	-0.5	i	1.4	-5	1	4
O=C(NCc1ccco1)c1scc2c1OCCO2	·	·	·	-3	·	·	3.1	-18	-10	3
The listing continues:
SMILES	rRNA inh HTS	rRNA inh HTS OD600	rRNA inh HTS RFP	Calb FLC	AF4-AF9 inh	FGF22 binding	RanGTP-Impb inh	ALR H2O2 inh	Beta cell apopt	T cruzi inh
CC[C@@]1(c2ccccc2C)C(=O)N(C(=O)OC)N1C(=O)OC	17	10	0.5	2	-0.7	i	1.7	·	-3	-12
CCN(CC)c1nc(C)c(C(C)=O)cc1C#N	·	·	·	2	·	·	4.0	-22	-3	-5
CC[C@@]12C(=O)N(c3ccccc3)C(=O)N1[C@H](c1ccc(Br)cc1)[C@@H]1C(=O)N(C(C)(C)C)C(=O)[C@@H]12	2	-3	0.9	14	0.4	i	-6.5	-10	-7	1
O=C(Nc1ccc(-c2csc(Nc3cccc(C(F)(F)F)c3)n2)cc1)c1cccc(C(F)(F)F)c1	-13	-16	-1.1	-12	6.0	i	0.5	-1	19	59*
CCN(CC)S(=O)(=O)c1ccc(OC)c(NC(=O)c2cccc([N+](=O)[O-])c2C)c1	·	·	·	21	·	·	2.4	-3	-2	6
C/C(=C1\SC(N2CCOCC2)=NC1=O)c1ccc(C)cc1	·	·	·	-1	·	·	5.1	7	-3	·
O=C(CN1C(=O)NC2(CCc3ccccc32)C1=O)NCc1ccc(Cl)cc1 (stereo not drawn)	-10	5	-2.0	·	0.6	i	·	-8	3	·
COc1ccccc1CNC(=O)COC(=O)Cc1ccc(Br)cc1	-7	2	0.6	·	-2.4	i	·	-4	-3	·
C/C(=C\c1ccccc1)C(=O)Nc1ccc(S(=O)(=O)Nc2ncccn2)cc1	1	2	0.0	-4	-17	i	?	3	0	1
CC(C)OC(=O)c1cc(-c2ccc(C=O)o2)ccc1Cl	-7	1	-1.8	0	13	i	?	2	-12	1
CC(C)CCN1C(=O)CC(NNC(=O)c2ccc(S(=O)(=O)N3CCCC3)cc2)C1=O (stereo not drawn)	0	5	2.2	19	2.1	i	1.3	3	-8	1
O=C(CCN1CCc2ccccc2C(c2ccccc2)C1)c1ccc2c(c1)OCCO2 (stereo not drawn)	·	·	·	-19	·	·	?	97*	-38	-13
Cc1ccc(C(=O)C(OC(=O)c2c(C)cc(=O)oc2C)c2ccccc2)cc1 (stereo not drawn)	-10	-8	-1.2	15	3.0	i	-1.9	-4	7	-8
c1ccc2c(c1)CCN(c1nc(CN3CCOCC3)nc3sc4c(c13)CCCC4)C2	·	·	·	39	1.8	i	1.8	34	-5	37
O=C(/C=C/c1cccc([N+](=O)[O-])c1)NCCN1C(=O)S/C(=C\c2cccnc2)C1=O	12	16	7.4	0	-0.7	i	-5.7	·	2	-5
CCc1c(C)nc(SCC(=O)N2CCCCC2CC)[nH]c1=O (stereo not drawn)	1	0	-3.8	-5	-4.0	i	-0.7	-1	-3	11
COc1ccc(CNC(=O)c2ccc(CS(=O)(=O)c3ccc(Br)cc3)o2)cc1	-2	-7	0.0	9	-1.0	i	3.2	-5	-9	10
CCc1[nH]nc2c1C1(CCOC1C)C(C#N)=C(N)O2 (stereo not drawn)	·	·	·	-5	·	·	-0.4	·	-5	-3
CCOc1ccc(OCC)c(NC(=O)C2CCCN(C(=O)c3ccc(Cl)cc3)C2)c1 (stereo not drawn)	-4	-15	3.5	·	-1.1	i	·	·	6	·
